Compound activity from PubChem BioAssay.
CSC inhib: cancer stem cell viability inhibitors, primary screen, luminescence; AID 2717, 2010; hit rate 1.1% among 300,000; inhibition, % at 7.5 µM; cancer stem cell-like cells viability;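 active = mean at 75% or more and at least half the replicates too; tested in HMLE shEcad cells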;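 note: 0% = median of negative and 100% = median of positive control wells; the first replicate is given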
eIF4H FP inh: human eIF4H binding inhibitors, primary screen, translation initiation inhibitor project, biochemical, uHTS, fluorescence polarization | eIF4H fluorescence polarization binding assay | hit rate 0.94% among 290,000 | AID 2012, 2009 | Eukaryotic translation initiation factor 4H (Homo sapiens), Q15056 | inhibition, % at 35 µM;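 active = 50% or more with normal probe brightness, or confirmed in later tests; about a fifth of its hits are not listed in these tables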;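 note: calls also rest on retests at 20 µM and on dose response follow-up; 0% = protein and probe with vehicle and 100% = probe without protein; strong numbers were not always called active; many hits fall short of the cut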
Yeast UUG start: modulators of yeast start codon fidelity, primary screen, whole organism, S. cerevisiae, single point, plate reader. S. cerevisiae UUG-firefly luciferase reporter, luminescence/redox ratio. activity score, % at 18.7 µM. hit rate 0.13% among 350,000. AID 602363, 2012;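 active = replicate mean at a twofold rise or more, about +100% in these data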;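 note: firefly luciferase made from a UUG start codon reports start codon fidelity; reporter light over untreated wells divided by growth signal over untreated wells; some hits fall short of that in this replicate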
HIV Env fusion: inhibitors of HIV-1 Env-driven cell-cell fusion, primary screen, HeLa-JRFL effector, CEM21 target cells, luciferase; inhibition, % at 12.3 µM; hit rate 1.1% among 360,000; AID 651610, 2012;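 active = mean replicate inhibition score of at least 50 and every replicate individually at or above 50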;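 note: 0% = plate neutral controls and 100% = maraviroc near 300 nM; one replicate is shown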
Rce1 inh: yeast Rce1p protease inhibitors, primary screen, biochemical, fluorescence, cell-free homogeneous; yeast membranes, quenched prenylated peptide cleavage fluorescence; calls only; hit rate 0.27% among 290,000;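 active = fall in fluorescence gain of 50% or more versus controls, with final raw signal at or below 3038400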;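 note: plate controls were neutral control wells for no effect and wells lacking membranes for full effect; tested at 10 µM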
PABP polyA inh: PABP poly(A) RNA binding inhibitors, primary screen, biochemical, fluorescence polarization, uHTS | hit rate 1% among 290,000 | Polyadenylate-binding protein 1 (Homo sapiens), P11940 | inhibition, % at 35 µM;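 active = 50% or more with normal probe brightness, or confirmed in later tests; about a fifth of its hits are not listed in these tables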;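 note: calls also rest on retests at 20 µM and on dose response follow-up; controls were probe without protein and protein plus probe with vehicle; some compounds called inactive have numbers as strong as hits; many hits fall short of the cut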
Target sequence (P11940 whole entry, looked up): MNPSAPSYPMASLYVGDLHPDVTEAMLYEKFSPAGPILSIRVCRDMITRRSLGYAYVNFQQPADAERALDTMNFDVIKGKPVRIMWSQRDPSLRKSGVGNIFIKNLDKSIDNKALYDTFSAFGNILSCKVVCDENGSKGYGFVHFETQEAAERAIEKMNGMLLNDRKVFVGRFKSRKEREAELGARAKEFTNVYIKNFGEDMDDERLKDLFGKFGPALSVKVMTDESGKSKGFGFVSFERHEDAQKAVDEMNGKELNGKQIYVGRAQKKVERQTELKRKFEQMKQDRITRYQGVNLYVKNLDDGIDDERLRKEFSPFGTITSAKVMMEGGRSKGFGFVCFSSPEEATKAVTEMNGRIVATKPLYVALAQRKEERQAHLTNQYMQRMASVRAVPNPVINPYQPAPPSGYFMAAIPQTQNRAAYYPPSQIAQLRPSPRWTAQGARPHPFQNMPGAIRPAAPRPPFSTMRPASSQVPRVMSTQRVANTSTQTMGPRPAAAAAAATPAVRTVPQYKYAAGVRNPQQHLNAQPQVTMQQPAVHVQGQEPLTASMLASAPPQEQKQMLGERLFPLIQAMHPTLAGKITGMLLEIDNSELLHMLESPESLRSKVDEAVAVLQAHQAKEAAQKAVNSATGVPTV
MT1-MMP act inh: blockers of MT1-MMP proenzyme processing, primary screen, HT1080 RFP-PRO-GFP cells, GFP/RFP fluorescence; GFP/RFP ratio change, % at 20 µM; Matrix metalloproteinase-14 (Homo sapiens), P50281; hit rate 0.061% among 360,000; AID 651647, 2012; GFP/RFP ratio fluorescence, overnight; percent of plate control window, DMSO zero;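 active = GFP/RFP ratio change of at least 30% with cell ATP level not reduced by more than half and red fluorescence within 50% of control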; note: strong numbers were not always called active
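Read-out: GFP/RFP fluorescence ratio; Test system: RFP-PRO-GFP reporter HT1080 cells; Compound dosing: single-point 20 µM compound, 1% DMSO; Times: overnight compound exposure at 37 °C.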
MT1-MMP act inh RFP: further read-out of MT1-MMP act inh, marked with its call; RFP signal change, %; measured here: RFP expression control read;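 0 = vehicle wells; hits needed this value within 50% of zero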
An asterisk follows results filed as active; i = inactive; nt = not tested or not shown; [ ] = remark or other dose. Not all compounds are listed; the hit share may differ from the screen's.

Results follow in this order: CSC inhib	eIF4H FP inh	Yeast UUG start	HIV Env fusion	Rce1 inh	PABP polyA inh	MT1-MMP act inh	MT1-MMP act inh RFP
Cc1nn(Cc2ccc(F)cc2Cl)c(C)c1[N+](=O)[O-]
  -7	13	nt	5	i	-1	-2	0
CCCN1CCC(NC(=O)Cc2ccc(C)cc2)CC1
  -7	7	-18	4	i	-12	3	6
Cc1ccc(Cn2ncc3c(N4CCN(c5ccccc5C)CC4)ncnc32)cc1
  48	6	nt	nt	i	-7	-15	-26
N/C(=N\OC(=O)COc1cc(Cl)c(Cl)cc1Cl)c1ccncc1
  0	6	nt	-36	i	15	nt	nt
CC1(c2nnc(-c3ccccc3)o2)CC(c2cccnc2)=NO1 (stereo not given)
  6	-4	-19	2	i	5	2	-1
NC(=O)CNC(=O)C1CCN(S(=O)(=O)c2ccc(-n3cnnn3)cc2)CC1
  nt	-4	-16	13	i	3	1	3
CC(=O)NC1C(=O)N(C)c2ccc(Br)cc21 (stereo not given)
  7	-9	5	-64	i	-2	4	3
CC1(c2ccccc2)NC(=O)N(CC(=O)N2CCN(S(=O)(=O)c3ccccc3[N+](=O)[O-])CC2)C1=O (stereo not given)
  -3	-9	-9	nt	i	-8	1	0
CCOC(=O)c1c(C)[nH]c(C)c1C(=O)COC(=O)c1cc(OC)cc(OC)c1
  3	4	nt	-7	i	1	1	6
CN(Cc1ccccc1)C(=O)Cn1nc(C(F)(F)F)c2c1CCC2
  -5	-11	-9	-12	i	-7	1	12
S=C(NCC1CC1)N/N=C/c1ccccc1Cl
  3	-6	nt	-1	i	2	2	-5
CCOC(=O)c1cc2sccc2n1CC(=O)c1ccc2c(c1)OCCO2
  14	3	-13	nt	i	17	2	1
CCC(C(=O)Nc1ccc2c(c1)OCCO2)n1nnc2ccccc2c1=O (stereo not given)
  6	-2	nt	-52	i	9	-1	-2
COc1ccccc1N1CCN(CCCOc2ccc(F)cc2)CC1
  0	12	-1	nt	i	5	10	4
CN(CC(=O)N1CCCC1)S(=O)(=O)c1ccc(Cl)cc1
  -5	2	-21	11	i	-8	-1	5
CC(C)(C)C(=O)C(Cc1ccccc1)n1cncn1 (stereo not given)
  nt	-5	-11	-84	i	0	0	5
CCn1c(CSc2n[nH]c(N)n2)nc2cc(C(=O)O)ccc21
  -2	27	nt	-1	i	-2	24	17
COc1ccccc1OCC(=O)Nc1cc(Cl)ccc1N1CCCCC1
  31	nt	-26	nt	nt	nt	-5	-3
CCCC(=O)N1CCC1(C)C(=O)Nc1ncc(C(=O)OC)s1 (stereo not given)
  nt	nt	-18	-3	nt	nt	1	1
COCCn1nnnc1C(c1ccccc1)N1CCN(C(=O)c2ccco2)CC1 (stereo not given)
  nt	-6	-10	-7	i	-2	-4	2

Of the compounds above, two have a nitro group on carbon.
Results follow in this order: CSC inhib	eIF4H FP inh	Yeast UUG start	HIV Env fusion	Rce1 inh	PABP polyA inh	MT1-MMP act inh	MT1-MMP act inh RFP
Cc1nn(Cc2ccc(F)cc2Cl)c(C)c1[N+](=O)[O-]
  -7	13	nt	5	i	-1	-2	0
CC1(c2ccccc2)NC(=O)N(CC(=O)N2CCN(S(=O)(=O)c3ccccc3[N+](=O)[O-])CC2)C1=O (stereo not given)
  -3	-9	-9	nt	i	-8	1	0

Further records.
Results follow in this order: CSC inhib	eIF4H FP inh	Yeast UUG start	HIV Env fusion	Rce1 inh	PABP polyA inh	MT1-MMP act inh	MT1-MMP act inh RFP
O=C(N[C@H]1CC[C@@H](CCNS(=O)(=O)c2ccccc2Cl)O[C@@H]1CO)c1ccccc1
  nt	nt	-7	22[16.7 µM]	nt	nt	-2	0
COCCN(C(=O)C1CC(=O)N(Cc2ccccc2)C1)c1nc(-c2ccc([N+](=O)[O-])cc2)cs1 (stereo not given)
  nt	nt	-16	14	nt	nt	3	-11
Cc1ccccc1-n1c(C)cc(/C=N/NC(=O)c2ccncc2)c1C
  -5	6	-24	-9	i	-4	1	0
C/C(N)=C(/C#N)C(=O)COC(=O)c1ccccc1Oc1ccccc1
  nt	2	-11	10	i	8	-1	-2
CCOc1cc(C#N)c(NC(=O)CSc2nnnn2-c2ccc(OC)cc2)cc1OCC
  -23	-3	-10	-178	i	2	15	-3
COC(=O)c1ccc(C2C(C(=O)c3ccco3)=C(O)C(=O)N2CC2CCCO2)cc1 (stereo not given)
  nt	-1	-17	9	i	10	2	2
CCCN(CC(=O)Nc1ccccc1C)C(=O)c1ccc2c(c1)OCO2
  nt	nt	14	6	nt	nt	-2	0
N#Cc1cc(-c2ccccc2)nnc1Oc1ccccc1
  -3	3	-15	nt	i	2	10	-13
O=C(CNC(=O)C12CC3CC(CC(C3)C1)C2)NCc1ccccc1
  0	nt	-17	-116	i	nt	5	5
Cc1cc(C(=O)N2CCC2(C)C(=O)NS(=O)(=O)c2ccc(Cl)cc2)nn1C (stereo not given)
  nt	nt	-14	6	nt	nt	4	-1
C/C(=N\NC(=O)COc1ccccc1)c1cccs1
  -7	-9	nt	-28	i	-8	-2	2
Cc1ccc(S(=O)(=O)NC(=O)NC(C)Cc2ccccc2)cc1 (stereo not given)
  -5	-9	-5	-6	i	-1	0	5
O=C(NCc1ccco1)c1cc(S(=O)(=O)N2CCOCC2)c(Cl)cc1Cl
  nt	-10	nt	nt	i	-3	2	0
Cc1cccc(/C=N/N(CCO)C2=NS(=O)(=O)c3ccccc32)c1
  1	4	19	-38	nt	-4	-4	-6
O=C(O)C1C2C=CC(C2)C1C(=O)NC1CCS(=O)(=O)C1 (stereo not given)
  -6	2	-3	nt	i	4	1	1
CSc1ncc(-c2ccc(Cl)cc2)[nH]1
  -1	-1	-23	-53	i	-2	0	5
O=S(=O)(c1cc(Cl)ccc1Cl)N1CCCCC1
  -1	46	-45	18	i	-6	-4	4
Cc1cc(C)c(NC(=S)N(CCCN2CCN(C)CC2)Cc2cccs2)c(C)c1
  11	-2	-15	-2	i	4	-2	-1
Cc1ccc(S(=O)(=O)NCC(=O)N(CC(=O)NCC2CCCO2)CC2CCCO2)cc1 (stereo not given)
  -7	-3	-13	10	i	13	2	5
COc1ccc(N2CCN(c3nc(NC(C)(C)C)nc(N4CCCCC4)n3)CC2)cc1
  61	-4	-1	nt	i	0	-6	-13
CCCCOc1ccc(-c2cc(C(=O)NNC(=S)NCC)c3ccccc3n2)cc1
  100*	22	-54	nt	i	5	-13	-16
CC(C)OC(=O)Cn1nc(C(F)(F)F)c2c1CCCC2
  -10	2	nt	-16	i	5	5	6
C[C@@H](C(=O)NCCc1c[nH]c2ccccc12)[C@@H]1C[C@@]1(C)[C@@H](NC(=O)OCc1ccccc1)c1ccccc1
  24	-9	-16	4	nt	-9	-4	-4
O=C(Nc1cccc(S(=O)(=O)N2CCCCC2)c1)Nc1ccc(Cl)cc1Cl
  65	-4	nt	24	i	-8	-8	-24
CCc1c(SCCC(=O)O)nc2ccccc2c1C
  -3	-12	nt	6	i	9	-2	3
COCCn1c(N2CCN(c3ccc(OC)cc3)CC2)nc2c1c(=O)n(C)c(=O)n2C
  1	-15	nt	nt	i	-8	8	-3
CS(=O)(=O)Nc1ccc(C(=O)NCC2CCCO2)cc1 (stereo not given)
  -1	3	-11	nt	i	7	0	6
Cc1nn(C)cc1C1C2=C(CC(C)(C)CC2=O)N(c2ccccc2)C2=C1C(=O)CC(C)(C)C2
  -4	10	-4	-45	i	28	-5	-7
Cc1cccc(NC(=O)Cn2cnc3c(cnn3-c3ccc(F)cc3)c2=O)c1C
  -2	-8	-10	-9	i	-9	3	-6
Cc1ccc(C)n1-c1ccc(C(=O)Nc2ccccc2F)cc1
  -5	-1	nt	-28	i	2	-3	-2
CCC(=O)Nc1ccc(-c2cc3ccccc3oc2=O)cc1
  7	2	nt	7	i	-7	1	1
CCCCC(=O)OCC(=O)c1ccc(OCC)cc1
  -6	1	-23	nt	i	10	1	1
CN(C)c1ccc(/C=N\NC(=O)c2cccc3cc[nH]c23)cc1
  26	0	nt	-21	i	1	3	-1
O=C(CSc1nc(-c2ccncc2)nn1CC(=O)N1CCCCC1)NC1CCCC1
  nt	2	-3	nt	i	-13	16	4
O=C(COc1ncnc2ccccc12)Nc1cccc([N+](=O)[O-])c1
  -4	-1	nt	23	i	-12	0	3
C=CCSC1=N/C(=C\c2ccc(C(=O)O)cc2)C(=O)S1
  -8	-9	nt	0	i	3	0	4
CCN(CC(=O)NCc1cccs1)C(=O)/C=C/c1cccc(OC)c1OC
  5	nt	-3	4	i	nt	7	-1
CCOC(=O)N1CCC(NC(=O)C2=C(C)C(=O)OC23CCC(C)CC3)CC1 (stereo not given)
  5	-3	-9	-65	i	1	0	-2
CC(=NO)C1(C)CC=CCC1CO (stereo not given)
  nt	nt	-13	-8	nt	nt	0	2
COc1ccc([C@H]2CC(=O)C=C(c3ccc4ccn(C)c4c3)C2)cc1
  55	nt	-14	-19	nt	nt	0	0

Compound profiles, as listed above. Screens in order: CSC inhib | eIF4H FP inh | Yeast UUG start | HIV Env fusion | Rce1 inh | PABP polyA inh | MT1-MMP act inh | MT1-MMP act inh RFP
O=C(CSc1nc(-c2ccncc2)nn1CC(=O)N1CCCCC1)NC1CCCC1 reads nt | 2 | -3 | nt | i | -13 | 16 | 4
CCC(=O)Nc1ccc(-c2cc3ccccc3oc2=O)cc1 reads 7 | 2 | nt | 7 | i | -7 | 1 | 1
CCN(CC(=O)NCc1cccs1)C(=O)/C=C/c1cccc(OC)c1OC reads 5 | nt | -3 | 4 | i | nt | 7 | -1
O=C(COc1ncnc2ccccc12)Nc1cccc([N+](=O)[O-])c1 reads -4 | -1 | nt | 23 | i | -12 | 0 | 3
CCCCC(=O)OCC(=O)c1ccc(OCC)cc1 reads -6 | 1 | -23 | nt | i | 10 | 1 | 1

(further entries)
Results follow in this order: CSC inhib	eIF4H FP inh	Yeast UUG start	HIV Env fusion	Rce1 inh	PABP polyA inh	MT1-MMP act inh	MT1-MMP act inh RFP
Cc1ccc(Cn2cc(/C=N/NC(=O)Cc3nnc(NC(=O)c4ccc(C)cc4)s3)c3ccccc32)cc1
  -2	5	-15	-17	i	-4	-5	-2
CN(C)c1ccc(CNC(=O)CN2C(=O)COc3ccc(S(=O)(=O)N4CCCC4)cc32)cc1
  -12	-13	-10	7	i	-10	1	3
Cn1c(CNC(=O)C(C)(C)C)nc2ccccc21
  7	3	-22	-15	i	6	2	4
O=C(CN1CCOCC1)Nc1c2c(nc3ccccc13)N(Cc1ccccc1)CC2
  nt	-6	-6	nt	i	19	-2	-1
Nc1cc2c(cc1[N+](=O)[O-])OCCO2
  13	-5	-1	-18	i	-3	7	4
CCOc1ccccc1N(CC(=O)O)S(=O)(=O)c1ccccc1
  -13	-6	-4	-12	nt	4	-3	-1
CCC(NC(=O)c1ccccc1NC(=O)c1ccc(C)cc1)C(=O)O (stereo not given)
  nt	-4	-18	-45	i	1	5	2
